Screening data: PubChem, National Center for Advancing Translational Sciences (NCATS)
SARS PLpro yeast = SARS-CoV PLP inhibition in yeast. S. cerevisiae expressing SARS-CoV PLpro, growth rescue; control for the full effect not named in the record. Potency, µM (highest dose often 32.9 µM), inactives show at the top dose activity, positive = growth rescue. 0.19% of 330,000 active. AID 485353; active means well fitted rising curve with a large enough effect; inconclusive means small, poorly fitted or top-dose-only effect; inactive means no such curve, though single readings can be large or run the other way; also: 0% is about no effect; nearly all actives have a fitted effect of over 55% in size; growth read by luminescence after 48 h
Cruzain noTriton = cruzain (T. cruzi) inhibition without detergent; Potency, µM, inactives show max response, negative = inhibition, most hits filed as inhibitors; P25779; purified cruzain, Z-FR-AMC fluorescence, no detergent; AID 1476; 2.3% of 200,000 active;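 also: plate controls were enzyme without inhibitor for no effect and buffer without enzyme for full effect; nearly all actives have a fitted effect of over 40% in size; top concentration of the series not given in the record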
Target sequence (P25779 123-467 limits assumed): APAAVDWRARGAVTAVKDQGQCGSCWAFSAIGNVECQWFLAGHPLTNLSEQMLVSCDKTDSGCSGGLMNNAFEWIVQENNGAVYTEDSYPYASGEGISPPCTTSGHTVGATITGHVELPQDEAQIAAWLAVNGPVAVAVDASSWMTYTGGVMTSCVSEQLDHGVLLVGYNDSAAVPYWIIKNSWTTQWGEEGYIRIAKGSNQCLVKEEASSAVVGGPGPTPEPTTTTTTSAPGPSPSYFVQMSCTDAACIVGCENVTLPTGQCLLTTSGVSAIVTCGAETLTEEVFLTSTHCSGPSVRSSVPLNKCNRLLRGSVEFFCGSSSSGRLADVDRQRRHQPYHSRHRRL
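Purified cruzain at 1.5 nM, pre-incubated 15 min with compound at room temperature in 100 mM sodium acetate pH 5.5, 5 mM DTT, 0.00005% Triton X-100. Reaction started with 2 uM Z-FR-AMC; AMC fluorescence increase over 60 s gives rate.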
Cruzain Triton = cruzain (T. cruzi) inhibition with detergent; P25779; purified cruzain, Z-FR-AMC fluorescence, 0.01% Triton; Potency, µM, inactives show max response, negative = inhibition, usual class: inhibitors; 0.43% of 200,000 active; AID 1478;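 also: plate controls were neutral wells for no effect and buffer without enzyme for full effect; nearly all actives have a fitted effect of over 40% in size; top concentration of the series not given in the record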
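Steps: dispense cruzain (1.5 nM final) in acetate buffer pH 5.5 with DTT and 0.01% Triton X-100; pin-transfer compounds; incubate 15 min RT; add Z-FR-AMC (2 uM final); read fluorescence every 30 s, using the 60 s intensity change.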
Lassa entry inh = blocks Lassa virus binding to or entry into cells. AID 540256. 1.2% of 300,000 active. Lassa virus pseudotype entry inhibition, cell reporter; control for the full effect not named in the record. Potency, µM (top dose mostly 37.9 µM), inactives show top-dose activity change, negative = inhibition, hits mostly inhibitors; active means well fitted inhibition curve with a large enough effect; inconclusive means small, poorly fitted or top-dose-only effect, or effect the other way; inactive means flat fitted curve, though single readings scatter; tested in HEK293 cells; also: % is scaled to controls: 0 for no effect and ±100 for the full control effect; nearly all actives have a fitted effect of over 50% in size; luciferase read-out
Marburg entry inh = Marburg virus entry inhibition; Marburg virus pseudotyped entry inhibition, cell reporter; control for the full effect not named in the record; about a third of the inactives were read at about 46 µM; Potency, µM (titrated, usually from 37.8 µM), without a hit: at the top dose activity change, negative = inhibition, actives largely listed as inhibitors; 1.8% of 300,000 active; AID 540276; active = well fitted inhibition curve with a large enough effect; inconclusive = small, poorly fitted or top-dose-only effect, or effect the other way; inactive = flat fitted curve, though single readings scatter; tested in HEK293 cells; about a fifth of its hits are not listed in these tables; also: % is scaled to controls: 0 for no effect and ±100 for the full control effect; luciferase read-out
StopGo reporter = FMDV 2A StopGo reporter, luciferase signal; human cells with a luciferase reporter of 2A StopGo recoding; control for the full effect not named in the record; Potency, µM (series often up to 57.9 µM), for the others: at the highest dose signal change, negative = less light; 1.2% of 410,000 active; active = well fitted falling curve with a large enough effect; inconclusive = small, poorly fitted or top-dose-only effect; inactive = no such curve, though single readings can be large or run the other way; tested in HEK293T cells; also: % is scaled to controls: 0 for no effect and ±100 for the full control effect; nearly all actives have a fitted effect of over 45% in size; luciferase light after 4 h
NS1 function inh = inhibitors of influenza NS1 protein function | S. cerevisiae slowed by influenza A NS1, growth recovery by OD600 | Potency, µM (series often up to 46.1 µM), for inactives: at the highest dose activity, positive = more growth | 0.4% of 270,000 active; active means well fitted rising curve with a large enough effect; inconclusive means small, poorly fitted or top-dose-only effect; inactive means no such curve, though single readings can be large or run the other way; also: nearly all actives have a fitted effect of over 50% in size
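Compounds were scored for reversing the slow growth caused by influenza A NS1 in S. cerevisiae, measured by optical density at 600 nm. Assay medium contained 2% galactose at pH 6.0; NS1-free yeast of the same strain were the positive control.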
RE007 growth inh = less growth of the S. pombe RE007 Vpr strain. Potency, µM (series often up to 92.2 µM), for the others: at the top dose activity change, negative = less growth. S. pombe RE007 Vpr strain, BacTiter-Glo ATP luminescence, 24 h; control for the full effect not named in the record. AID 651644. 0.21% of 360,000 active; active = well fitted falling curve with a large enough effect; inconclusive = small, poorly fitted or top-dose-only effect; inactive = no such curve, though single readings can be large or run the other way;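 also: % is scaled to controls: 0 for no effect and ±100 for the full control effect; nearly all actives have a fitted effect of over 50% in size; the assay follows cell death caused by Vpr and the record does not say whether a fall means rescue or toxicity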
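Fission yeast strain RE007, carrying one chromosomally integrated HIV-1 vpr copy, was seeded at OD 0.01 in PMG+AL medium with 23 nL pinned compound. After 24 h at 30 °C and 99% humidity, viability was read by BacTiter-Glo luminescence.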
Active calls of the source: *; ? = inconclusive; / = not tested or not shown; [ ] = dose if it differs, or a comment. Unless noted, calls follow the shape of the dose curve; as a rule, active = well fitted curve in the direction sought with a large enough effect; inconclusive = small, poorly fitted or top-dose-only effect, or another doubt; inactive = no such curve, though single readings can be large; an effect the other way counts as inactive or inconclusive. Potency is read from the fitted curve at half-maximal effect.

compound,SARS PLpro yeast,Cruzain noTriton,Cruzain Triton,Lassa entry inh,Marburg entry inh,StopGo reporter,NS1 function inh,RE007 growth inh
Cc1ccc(NC(=O)C(=O)NCc2ccc(/C=C(/C#N)C(=O)NCc3cccnc3)o2)cc1C,?,?,-4.3%,-1%,28%,?,4%,/
CNC(=O)c1c(C)nn(-c2ccc(F)c(Cl)c2)c1-c1cc(C)on1,0%,/,/,3%,8%,-24%,-3%,6%
CCOC(=O)N1CCN(C(=O)c2ccc3c(c2)sc2nc(-c4ccccc4)cn23)CC1,-4%,?,?,?,?,-16%,-75%,10%
Cc1cccc(NC(=O)COC(=O)c2ccc3c(=O)n4c(nc3c2)CCC4)c1,14%,-4%,-4.9%,?,-22%,-10%,-2%,-6%
CCOC(=O)Nc1ccc2c(CN(C)Cc3ccc(F)cc3)cc(=O)oc2c1,-2%,/,/,/,21%[46.1 µM],12%,-2%,7%
CC12CC(NC(=O)N1c1cccc(C(=O)NCc3ccccn3)c1)c1ccccc1O2 (stereo not drawn),-3%,/,/,/,/,-13%,-4%,0%
COc1ccc(C(NC(=O)/C=C\c2ccco2)c2ccc(OC)c(OC)c2)cc1 (stereo not drawn),-6%,25%,-2.9%,-16%,-6%,-11%,15%,-3%
Cc1nc2ccccc2c(=O)n1/N=C/c1cn[nH]c1-c1ccccc1,1%,/,/,?,-18%[46.1 µM],-15%,-2%,-12%
CCCSc1cc(NCCOC(=O)CCC)c([N+](=O)[O-])c2nonc12,-103%,-1%,-21%,-6%,-2%,0%,-22%,-9%
O=C(N/C(=C\c1ccco1)C(=O)N1CCOCC1)c1ccc([N+](=O)[O-])cc1,1%,/,/,-3%[46.1 µM],7%[46.1 µM],5%,5%,6%
COCC(=O)Nc1ccc(S(=O)(=O)Nc2cc(C)nc(C)n2)cc1,15%,-4%,5.6%,29%,8%,61%[activator],-1%,-1%
CC(C)CC(=O)Nc1cc([N+](=O)[O-])ccc1Cl,?,-8%,1.8%,1%,0%,-8%,7%,4%
CCOc1cc(C#N)c(NC(=O)c2cccc(S(=O)(=O)N3CCOCC3)c2)cc1OCC,/,?,-2.6%,11%[46.1 µM],3%[46.1 µM],0%,/,/
Cc1ccc(C2=NNC(=O)C(c3ccc(Cl)cc3)C2)cc1 (stereo not drawn),-2%,-7%,-7.3%,-8%,-2%[46.1 µM],?,-6%,-15%
CCCc1cc(=O)oc2c3c(ccc12)OCN(Cc1ccccc1OC)C3,/,8%,4.3%,14%[46.1 µM],/,-17%,/,/
COc1cccc(/C=N/n2c(COc3ccccc3)n[nH]c2=S)c1,3%,/,/,?,?,-10%,1%,3%
COc1cccc(C2C(C(N)=O)=C(C)Nc3nc(CCCO)nn32)c1OC (stereo not drawn),-28%,-5%,-1.9%,/,/,-15%,-5%,-7%
CC[n+]1c(/C=C2\C=C(C)CC(C)C2)sc2ccccc21 (stereo not drawn),6%,-17%,-3.6%,?,?,?,4%,-26%
Cc1ccc(C(=O)N2CCCC(CCC(=O)NCc3ccccc3F)C2)cn1 (stereo not drawn),3%,/,/,14%,16%,9%,-6%,4%
Cc1ccc(Cl)cc1NC(=O)COC(=O)CCN1C(=O)C2CC=CCC2C1=O (stereo not drawn),/,/,/,-4%,?,-11%,/,-1%
Cc1occc1C(=O)NNC(=S)NCC(C)C,-3%,-4%,3.7%,15%,15%,53%[activator],-4%,-2%
O=C(CC1OC(=O)c2ccccc21)NC1CCCCC1 (stereo not drawn),12%,-3%,4.5%,7%,10%,10%,-1%,-24%
O=C(c1ccccc1)N1CCCOC1c1ccccc1 (stereo not drawn),13%,2%,3.3%,13%,3%,1%,1%,11%
CC(C)=CCN1CCN(Cc2cn[nH]c2C2CCCCC2)CC1CCO (stereo not drawn),1%,/,/,14%,?,-9%,0%,-7%
COc1ccc(CNC(=O)CSc2nnc3c(n2)[nH]c2ccccc23)cc1,0%,/,/,7%,0%[46.1 µM],-15%,2%,-3%
COc1cccc(NC(=O)Nc2ccc(Cc3ccncc3)cc2)c1,1%,0%,-5.7%,-7%,?,-16%,-10%,17%
COc1ccc(OC)c(-n2nnnc2SCC(=O)N2CCN(C(=O)c3ccco3)CC2)c1,0%,/,/,12%,-4%[46.1 µM],-14%,3%,-22%
COc1ccc(CC(=O)Oc2ccc(Cl)cc2Br)cc1S(=O)(=O)N1CCOCC1,-4%,/,/,9%,?,-8%,/,12%
O=C(CCC(=O)N1CCOc2ccc(Cl)cc21)NCCCN1CCC(Cc2ccccc2)CC1,0%,/,/,/,/,-17%,16%,-10%
O=C(N/N=C/c1cccnc1)c1ccc(S(=O)(=O)N2CCCCCC2)cc1,-1%,/,/,-21%[46.1 µM],-11%[46.1 µM],0%,8%,2%
O=S1(=O)CCC(NCC2CCCO2)C1 (stereo not drawn),9%,-7%,6.6%,5%,8%,12%,?,-1%
CCCSc1nnc2c(n1)OC(CC)N(C(C)=O)c1ccccc1-2 (stereo not drawn),/,-1%,-1.9%,5%[46.1 µM],1%[46.1 µM],-18%,/,/
O=C1CSC2(C(=O)N(Cc3c(F)cccc3Cl)c3ccccc32)N1c1ccc(F)c(F)c1 (stereo not drawn),/,-19%,-7.2%,-24%[46.1 µM],/,?,/,/
NC(=O)c1sc2nc3c(c(-c4ccc(Cl)cc4)c2c1N)CCCC3,-7%,?,-12%,-21%,?,-14%,1%,13%
O=C(c1cc2c(=O)oc3ccccc3c2s1)N1CCOCC1,5%,-9%,1.6%,12%,27%,68%[activator],0%,4%
CC(C)CCN1C(=O)c2ccc(C(=O)Nc3ccc(Br)cc3C(=O)O)cc2C1=O,-4%,/,/,/,/,-18%,18%,4%
CCOc1ccc(NC(=O)CN(C)C(=O)c2ccc3c(c2)C(=O)N(CCC(C)C)C3=O)cc1OCC,-5%,/,/,0%,5%,-17%,9%,-11%
COc1cccc2cc(C(=O)NCCN3CCOCC3)oc12,1%,/,/,/,/,-3%,8%,-10%
Cc1ccc(C)c(S(=O)(=O)N2CCCOC2CNC(=O)C(=O)NC2CCCCC2)c1 (stereo not drawn),0%,/,/,15%,?,30%,9%,3%
O=C(Nc1ccc(Nc2ccccc2)cc1)c1c(Cl)cccc1Cl,/,/,/,-18%[46.1 µM],?,16%,/,-8%
Cc1ccc(-n2c(Cn3nc(C(F)(F)F)cc3C)n[nH]c2=S)cc1,-5%,0%,2.9%,30%,0%,10%,2%,5%
CCN(CC)S(=O)(=O)c1cccc(NC(=O)COc2ccc(Cl)cc2Br)c1,-11%,1%,-9.9%,?,?,-21%,-12%,6%
COc1ccc(/C=C/c2nc(C#N)c(NC3CCCCC3)o2)cc1OC,/,?,-8.4%,-26%[46.1 µM],-4%[46.1 µM],1%,/,/
Cc1nn(C(=O)c2c(F)cccc2F)c(C)c1S(=O)(=O)N1CCCCCC1,/,-4%,-3.0%,14%[46.1 µM],/,-10%,/,/
CCN1C(=O)C(CC(=O)NCc2ccc(Cl)cc2)N(CC)C1=O (stereo not drawn),-3%,-9%,-0.7%,27%,16%,18%,-37%,-3%
O=C(O)C1CCCN1C(=O)NC1CCCCC1 (stereo not drawn),5%,/,/,/,/,6%,3%,6%
COc1cccc(CNn2cn[nH]c2=S)c1OCc1ccccc1,-1%,/,/,/,/,-17%,-2%,6%
Cc1oc(-c2ccc(Cl)cc2)[n+]([O-])c1C,-39%,0%,-1.2%,-4%,21%,33%[activator],-166%,-20%
COc1ccc(-n2nc(C(=O)O)c3ccccc3c2=O)cc1,-1%,3%,0.8%,2%,-5%,9%,3%,-1%

Copied from the entries so far, ten compounds:
compound,SARS PLpro yeast,Cruzain noTriton,Cruzain Triton,Lassa entry inh,Marburg entry inh,StopGo reporter,NS1 function inh,RE007 growth inh
O=C(Nc1ccc(Nc2ccccc2)cc1)c1c(Cl)cccc1Cl,/,/,/,-18%[46.1 µM],?,16%,/,-8%
Cc1ccc(-n2c(Cn3nc(C(F)(F)F)cc3C)n[nH]c2=S)cc1,-5%,0%,2.9%,30%,0%,10%,2%,5%
CCN(CC)S(=O)(=O)c1cccc(NC(=O)COc2ccc(Cl)cc2Br)c1,-11%,1%,-9.9%,?,?,-21%,-12%,6%
COc1ccc(/C=C/c2nc(C#N)c(NC3CCCCC3)o2)cc1OC,/,?,-8.4%,-26%[46.1 µM],-4%[46.1 µM],1%,/,/
Cc1nn(C(=O)c2c(F)cccc2F)c(C)c1S(=O)(=O)N1CCCCCC1,/,-4%,-3.0%,14%[46.1 µM],/,-10%,/,/
CCN1C(=O)C(CC(=O)NCc2ccc(Cl)cc2)N(CC)C1=O (stereo not drawn),-3%,-9%,-0.7%,27%,16%,18%,-37%,-3%
O=C(O)C1CCCN1C(=O)NC1CCCCC1 (stereo not drawn),5%,/,/,/,/,6%,3%,6%
COc1cccc(CNn2cn[nH]c2=S)c1OCc1ccccc1,-1%,/,/,/,/,-17%,-2%,6%
Cc1oc(-c2ccc(Cl)cc2)[n+]([O-])c1C,-39%,0%,-1.2%,-4%,21%,33%[activator],-166%,-20%
COc1ccc(-n2nc(C(=O)O)c3ccccc3c2=O)cc1,-1%,3%,0.8%,2%,-5%,9%,3%,-1%
